# PINK1 expr mod: PINK1 expression modulation; Potency, µM (series often up to 76.6 µM), without a hit: top-dose activation (PINK1 increase), usual class: activators; 410,000 tested, 0.2% active; PINK1 immunofluorescence, high-content cytometry, 24 h; active = well fitted activation curve with a large enough effect; inconclusive = small, poorly fitted or top-dose-only effect; inactive = flat fitted curve, though single readings scatter; cell line not stated here;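 further: potency means the concentration at half of the fitted maximal effect; % of control where 0% means no effect; nearly all actives have a fitted effect of over 65% in size; a mitochondrial uncoupler was the plate control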
#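 Measures PINK1 amount and localization on or inside mitochondria by immunofluorescence. Stable cells get compounds at 5 concentrations for 24 hours before fixation and staining; CCCP controls included.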
# Sfp PPTase inh: inhibitors of Bacillus subtilis Sfp phosphopantetheinyl transferase | Q9F4F7 | Biochemical Sfp PPTase activity, qHTS | Potency, µM, inactives show max response, negative = inhibition, hits mostly inhibitors | 310,000 tested, 3.5% active; active means well fitted inhibition curve with a large enough effect; inconclusive means small, poorly fitted or top-dose-only effect, or another doubt; inactive means no such curve, though single readings can be large or run the other way;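 further: the enzyme is Sfp with the accession as filed and its product quenches rhodamine fluorescence; potency means the concentration at half of the fitted maximal effect; 0% = enzyme reaction without inhibitor and -100% = no enzyme wells; top concentration of the series not given in the record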
#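 Step 1, compound plus 15 nM Sfp-PPTase, 15 min, room temperature. Step 2, add rhodamine-CoA (5 uM) and BHQ-2-YbbR (12.5 uM). Step 3, read 525/598 nm fluorescence at 0 and 30 min.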
# ClpP mod: qHTS Assay for Activators of ClpP; ATP-dependent Clp protease proteolytic subunit (Bacillus subtilis (strain 168)), P80244; purified B. subtilis ClpP, FRET peptide cleavage, 20 min; Potency, µM (top dose mostly 57.5 µM), for the others: top-dose activity change, negative = active; 340,000 tested, 1.9% active; active = well fitted falling curve with a large enough effect; inconclusive = small, poorly fitted or top-dose-only effect; inactive = no such curve, though single readings can be large or run the other way; further: potency means the concentration at half of the fitted maximal effect; the source files actives as falling curves though it sought activators and does not explain the sign; nearly all actives have a fitted effect of over 65% in size; many hits overshoot -100%
# Target sequence (P80244 whole entry, looked up): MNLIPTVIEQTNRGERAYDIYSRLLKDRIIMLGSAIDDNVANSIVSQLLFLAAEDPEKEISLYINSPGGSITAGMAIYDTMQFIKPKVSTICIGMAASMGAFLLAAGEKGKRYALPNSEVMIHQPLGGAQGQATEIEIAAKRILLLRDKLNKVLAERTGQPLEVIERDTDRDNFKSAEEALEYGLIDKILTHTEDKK
#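 Buffer: 100 mM Tris/HCl pH8, 100 mM KCl, 0.05% low protease BSA, 2.5% glycerol, 0.01% Tween-20. ClpP 10 microg/mL final; 20 min RT; delta FRET normalized to ADEP and DMSO controls.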
# TRPML1 inh: inhibitors of human TRPML1 channel. 390,000 tested, 0.02% active. activity change, negative = inhibition, % (no concentration beside the values). AID 624415. TRPML1-inducible cells, Ca2+ dye fluorescence, FDSS; stronger effect = lower value; inhibition of EC80 agonist-evoked calcium signal; in the data active means activity change below about -50%; inconclusive means about -30% to -50%; inactive means above about -30%;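 further: stimulus is agonist 54-4 at its EC80 concentration; on the % scale 0 is the no-effect control and ±100 the full control effect; compound concentration not given in the record; the text of the record puts the active cut at -80%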
# Target sequence (Q9GZU1 whole entry, looked up): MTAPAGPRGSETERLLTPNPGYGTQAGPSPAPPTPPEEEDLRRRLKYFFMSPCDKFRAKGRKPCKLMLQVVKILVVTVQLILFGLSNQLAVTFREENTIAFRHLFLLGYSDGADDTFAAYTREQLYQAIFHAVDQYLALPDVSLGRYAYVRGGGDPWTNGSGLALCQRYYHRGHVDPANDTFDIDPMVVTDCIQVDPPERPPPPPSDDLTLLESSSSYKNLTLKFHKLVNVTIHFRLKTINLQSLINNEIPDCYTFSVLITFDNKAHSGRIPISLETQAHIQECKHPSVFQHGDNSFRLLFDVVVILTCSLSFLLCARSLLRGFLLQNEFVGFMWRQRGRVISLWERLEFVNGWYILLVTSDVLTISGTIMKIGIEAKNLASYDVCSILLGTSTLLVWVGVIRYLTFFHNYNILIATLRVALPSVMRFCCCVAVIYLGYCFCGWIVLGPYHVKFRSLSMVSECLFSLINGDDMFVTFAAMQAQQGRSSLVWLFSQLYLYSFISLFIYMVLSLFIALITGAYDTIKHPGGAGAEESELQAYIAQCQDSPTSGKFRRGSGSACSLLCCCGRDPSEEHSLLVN
#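 TRPML1-DL cells, Tet-induced overnight (~16 h, 37 °C) at 1,500 cells/well, were loaded with Ca8 no-wash dye plus quencher for 45-90 min at room temperature. Compounds were pinned during FDSS kinetic reading; agonist 54-4 at EC80 (4 uM final) then added.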
# Menin-MLL FL inh: inhibitors of human menin-MLL interaction, wild-type MLL peptide | AID 1766 | 290,000 tested, under 10 active | FP activity change, % at 61.4 µM | Fluorescence polarization, fluorescein-MLL peptide displacement from menin; inconclusive = falling polarisation curve, or a change in total fluorescence; inactive = total fluorescence flat and polarisation flat or rising; no compound was filed as active; the % refers to the polarisation; negative = inhibition;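 further: % of control where 0% means no effect; inhibitors lower the polarisation; unlabelled MLL peptide was the positive control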
# TRPML1 agonist: agonists of human TRPML1 channel; Q9GZU1; TRPML1-expressing cells, Ca2+ dye fluorescence, FDSS; host cell line not named in the record; reference of the full effect not given here; activation, % (test concentration not listed); 410,000 tested, 0.12% active; in the data active = activation above about 50%; inconclusive = about 30% to 50%; inactive = below about 30%; further: 0% is about no effect; the text of the record puts the active cut at 80%
#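 Tet-induced TRPML1-DL cells, 1,500 per well, cultured overnight, were loaded with a no-wash Ca2+ dye for 45–90 min. Calcium fluorescence was recorded on the FDSS for 110 s after compound addition, before the EC80 agonist (4 uM 54-4) was added.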
# TRPV1 potentiator: potentiators of human vanilloid receptor 1 (TRPV1); Q8NER1; TRPV1-expressing cells, Fluo-8 calcium influx, capsaicin EC20 potentiation; host cell line not named in the record; control for the full effect not named in the record; potentiation, % at 8.33 µM; 320,000 tested, 0.02% active; AID 540277; active means potentiation above 80%; inconclusive means 30% to 80%; inactive means below 30%; further: 0% is about no effect
#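 TRPV1-expressing cells were cultured overnight at 35.5C and loaded with Fluo-8 calcium dye for 40 to 90 min at room temperature. After a 10 s baseline, compound was added and calcium influx was read kinetically for 3 min (ex 480/em 520 nm).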
# Active calls of the source: *; ? = inconclusive; . = no result given; [ ] = remark or other dose.
smiles	PINK1 expr mod	Sfp PPTase inh	ClpP mod	TRPML1 inh	Menin-MLL FL inh	TRPML1 agonist	TRPV1 potentiator
CC12CCC(C(=O)NCCc3ccccc3)(OC1=O)C2(C)C (stereo not given)	1.5%	6%	0.4%	1	-1.2	0.3	3
COc1ccc(NC(=O)C2CCCN2S(=O)(=O)c2ccc3nc(-c4ccccc4)[nH]c3c2)cc1 (stereo not given)	-1.1%	.	-9.3%	18	.	2.1	.
Cc1nc2ccccc2nc(C)c1=NOCc1ccc(C#N)cc1	-2.2%	7%	-2.8%	6	-2.6	0.0	2
COc1cc(/C=N/n2nnnc2N)ccc1OCC#N	0.5%	8%	-13%	.	-0.4	.	-9
O=C(Cc1cccs1)Nc1nc2c(s1)CCCC2	3.2%[38.3 µM]	-4%	-2.0%	20	-0.2	-0.5	8
CNC(=O)c1cccnc1Nc1cccc(C(F)(F)F)c1	5.5%	17%	1.0%	-2	10	0.4	-15
CCOc1ccccc1NC(=O)CSc1nc(-c2cccs2)cc(C(F)(F)F)n1	6.0%	.	1.2%	-7	.	-0.1	.
Oc1ccccc1-c1n[nH]c(-c2ccccc2O)n1	?	.	?	-16	.	1.1	.
O=C(CC[C@H]1O[C@@H](n2ccc(=O)[nH]c2=O)[C@H](O)[C@@H]1O)N[C@H](Cc1ccccc1)C(=O)NCCCc1ccccc1	1.9%	.	1.7%	.	.	-0.1	.
CCCC1/C(=N/O)CC(c2ccccc2)NC1c1ccccc1 (stereo not given)	-1.7%	16%	.	-10	3.7	1.3	-3
CCn1c(SCC(=O)NCc2ccc(C)cc2)nnc1-c1ccncc1	.	16%	-0.5%	-16	8.0	-0.1	-10
O=C(Nc1ccccc1)N1CC[C@@]2(CCCN(C(=O)c3csnn3)C2)C1	-0.1%	11%	.	.	0.6	.	.
OCc1nn2c(c1Br)NC(c1ccccc1)CC2C(F)(F)F (stereo not given)	0.4%	8%	-17%	4	-0.1	0.1	2
COc1ccccc1CN1CCCC(CNC(=O)c2cccc3ccccc23)C1 (stereo not given)	-1.8%	1%	-0.5%	3	0.4	-0.4	13
COc1cccc(C(=O)NCc2ccco2)c1OC	-0.6%	4%	-4.6%	-7	-2.1	0.5	4
OC(CN1CCN(c2cccc(Cl)c2)CC1)C(c1ccccc1)c1ccccc1 (stereo not given)	15%	-15%	0.2%	4	0.4	-0.4	-1

# Some values from the list.
# TRPML1 inh with COc1ccc(NC(=O)C2CCCN2S(=O)(=O)c2ccc3nc(-c4ccccc4)[nH]c3c2)cc1 (stereo not given) is entered as 18
# PINK1 expr mod with O=C(CC[C@H]1O[C@@H](n2ccc(=O)[nH]c2=O)[C@H](O)[C@@H]1O)N[C@H](Cc1ccccc1)C(=O)NCCCc1ccccc1 is entered as 1.9%
# Sfp PPTase inh with CCCC1/C(=N/O)CC(c2ccccc2)NC1c1ccccc1 (stereo not given) is entered as 16%
# TRPML1 agonist with CC12CCC(C(=O)NCCc3ccccc3)(OC1=O)C2(C)C (stereo not given) is entered as 0.3

# The listing continues.
smiles	PINK1 expr mod	Sfp PPTase inh	ClpP mod	TRPML1 inh	Menin-MLL FL inh	TRPML1 agonist	TRPV1 potentiator
Cn1c(=O)c2c(ncn2CC(=O)Nc2ccc3c(c2)OCO3)n(C)c1=O	-1.9%	.	1.9%	-3	.	1.1	.
O=C(CN1C(=O)c2cccnc2Oc2ccc(Cl)cc21)NCCCc1ccccc1	-0.6%	-3%	-2.1%	16	.	0.0	-7
CC(=O)Nc1ccc(NC(=O)Oc2ccccc2)cc1	-2.1%[38.3 µM]	12%	-0.7%	7	0.9	0.8	18
CC(C)(C)OC(=O)N1CCC(C(=O)N[C@H](Cc2ccccc2)C(=O)O)CC1	-1.2%	-2%	-0.5%	-5	-1.8	0.2	-1
CCCc1ccc(-c2ccc(F)c(N)c2)nc1	-4.4%[38.3 µM]	14%	-0.2%	25	4.9	0.9	-7
CC1CCC(C(=O)NC(C(=O)N2CCC(N3CCCCC3)CC2)C(C)C)CC1 (stereo not given)	.	20%	0.4%	11	1.7	-0.1	-11
CC1CCCCN1CCNc1nc(=S)[nH]c2ccccc12 (stereo not given)	0.1%[38.3 µM]	-3%	-20%	-4	0.2	0.0	4
Cc1cc(NCCc2ccc(Cl)cc2)n2ncnc2n1	2.6%	14%	.	17	2.2	0.4	8
CCN1CCc2c(C#N)c(NCc3ccccc3)nc(N(CC)CC)c2C1	3.5%	?	?	11	3.1	1.8	8
CCOc1ccc2nc(SCC(=O)N3CCCc4ccccc43)sc2c1	0.0%	13%	-0.9%	1	4.1	1.0	8
CC(O)[C@H](NC(=O)C1(c2ccccc2)CCN(C(=O)OC(C)(C)C)CC1)C(=O)O (stereo not given in full)	3.1%	13%	1.6%	5	-0.1	-0.5	1
COc1ccccc1/C=N/NC(=O)c1[nH]c(C)c(C(=O)N/N=C/c2ccccc2OC)c1C	-2.6%	12%	0.0%	14	-1.3	1.1	-5
CC(C)N1C(=S)SC(C)(C)C1n1oc(=O)n(-c2ccc(Cl)c(Cl)c2)c1=O (stereo not given)	4.1%	15%	-0.9%	33	1.1	0.2	2
COc1ccccc1CNS(=O)(=O)c1ccc2[nH]cc(C(=O)O)c(=O)c2c1	1.1%	14%	-6.9%	13	1.9	0.2	-12
CCO[C@H]1c2c(ccc3ccc(=O)oc23)OC(C)(C)[C@@H]1O	1.3%	.	4.9%	0	.	-0.6	7
COC(=O)C(NC(=O)Nc1ccccc1OC)C(C)C (stereo not given)	1.4%	3%	-2.3%	-5	1.7	0.9	16

# One compound at a time (already shown). Values in the order: PINK1 expr mod	Sfp PPTase inh	ClpP mod	TRPML1 inh	Menin-MLL FL inh	TRPML1 agonist	TRPV1 potentiator
# COC(=O)C(NC(=O)Nc1ccccc1OC)C(C)C (stereo not given) in the list: 1.4%	3%	-2.3%	-5	1.7	0.9	16
# CCN1CCc2c(C#N)c(NCc3ccccc3)nc(N(CC)CC)c2C1 in the list: 3.5%	?	?	11	3.1	1.8	8

# Continued:
smiles	PINK1 expr mod	Sfp PPTase inh	ClpP mod	TRPML1 inh	Menin-MLL FL inh	TRPML1 agonist	TRPV1 potentiator
Oc1c(C=Nc2cccnc2)sc2ccccc12	-1.0%	-21%	-11%	3	?	0.0	-1
CCOc1ccc2nc(NCCNC(=O)CC)c(C#N)cc2c1	1.4%	-1%	?	-5	-18	-0.3	-14
CCN(Cc1cc(=O)oc2cc(C)ccc12)c1ccccc1	2.5%	-13%	0.4%	7	1.7	0.8	-10
O=C(CN1c2ccccc2Sc2ccccc21)NNC(=O)Nc1ccc(Cl)cc1	3.9%	-17%	-21%	-5	2.2	1.2	14
Cc1cc(=O)oc(C)c1C(=O)NCc1ccco1	-1.1%	-24%	1.8%	0	-10	-0.5	?
CN(C)CCN(C(=O)C1CCCCC1)c1nc2cc3c(cc2s1)OCO3	16%	-10%	-1.6%	11	.	1.0	-8
O=C(CSc1ncn[nH]1)Nc1ccc(Br)cc1Br	1.6%	.	-6.6%	-1	.	2.0	.
COCCCNC(=O)c1cc(Nc2ccc(OC)cc2OC)nc2ccccc12	1.9%	-4%	-0.5%	-5	-1.8	-0.7	-5
Cc1ccsc1C(=O)N1CCCC1(C)C(=O)NCC(C)C (stereo not given)	1.5%	.	-0.3%	78	.	2.2	.
COc1ccc(/C=C2\SC(=S)N(CCCC(=O)N3CCOCC3)C2=O)cc1OC	2.7%	2%	.	19	?	0.2	3
NC(=O)CCN1CCN(CCOC2Cc3cc(Cl)ccc3Sc3ccccc32)CC1 (stereo not given)	-1.8%	-12%	1.6%	22	0.0	2.6	-19
Cc1c(C(=O)N(C)CCn2ccnc2C)oc2c(F)cccc12	-0.2%	5%	.	0	-0.3	-0.2	3
COc1ccc(Cn2c(=O)[nH]c3cc(C(=O)Nc4ccc(N5CCN(C)CC5)cc4)ccc32)cc1	3.9%	-6%	-3.3%	0	4.6	1.4	?
CCOc1ccc(/C(O)=C2\C(=O)C(=O)N(c3ccccn3)C2c2ccccc2F)c(C)c1 (stereo not given)	2.2%	.	0.6%	-1	.	-0.6	.
CCN(CC)c1cc2c(c3c1ccn3C)C1CCC2C1 (stereo not given)	9.6%	.	-15%	7	.	0.6	.
O/N=C1\CCCc2ccccc21	1.0%	15%	.	25	-0.2	1.5	-6
Cc1ccc(S(=O)(=O)Cn2nnnc2C(C(C)C)N2CCN(c3nc4ccccc4s3)CC2)cc1 (stereo not given)	1.5%	4%	-1.0%	5	1.1	1.6	3
O=C(CN1C(=O)C2C3CC(C(Br)C3Br)C2C1=O)N1CCN(Cc2ccccc2)CC1 (stereo not given)	-1.5%	-5%	1.0%	11	-4.4	0.6	-4
CCOC(=O)C1(C)C=C(Nc2ccc(NC(C)=O)cc2)C(=O)N1c1ccc(NC(C)=O)cc1 (stereo not given)	5.0%	17%	25µM*	7	-0.3	-0.6	3
O=C(CC(c1ccccc1)c1cc(Br)ccc1O)N1CCCCC1 (stereo not given)	15%	8%	-0.7%	-1	-0.8	1.4	3
C[C@@H]1CN([C@H](C)CO)C(=O)Cc2cc(NC(=O)CCC(F)(F)F)ccc2O[C@@H]1CN(C)C(=O)NC1CCCCC1	1.6%	.	0.8%	0	.	-0.8	.
COC(=O)c1sccc1NC(=S)OC	1.9%	22%	.	-3	-0.7	1.6	-1
COc1ccc(-n2c(C)c(C(C)=O)c3cc(OCC(N)=O)ccc32)cc1	0.3%	11%	-1.8%	-8	3.0	-0.1	-9
CCN(CC)CCNC(=O)c1ccc(NC(=O)C2CCN(S(=O)(=O)c3ccc4c(c3)OCCO4)CC2)cc1	-0.4%	.	-1.9%	1	.	0.0	6
Cc1cccc(N2CCN(C(=O)CCCn3c(=O)[nH]c4ccsc4c3=O)CC2C)c1 (stereo not given)	2.9%	3%	.	-11	6.6	3.2	4
C/C(=N/NC(=O)c1cccs1)c1ccc(NC(=O)COc2ccc(Cl)cc2)cc1	6.8%	0%	?	0	3.8	0.7	-1
Cc1ccccc1C(C(=O)NCc1ccccc1)N(Cc1ccco1)C(=O)c1ccccn1 (stereo not given)	-2.3%	?	-0.8%	27	-2.5	1.9	-14
COc1ccc(CCNC(=O)CSc2nn(-c3ccccc3)c(=S)s2)cc1OC	-0.6%	15%	-0.5%	3	5.5	0.8	-7
Cc1cc(Br)c(S(=O)(=O)NCCN2CCOCC2)cc1C	-1.9%	23%	0.6%	5	0.7	-1.0	14
CCOP(=O)(c1ccccc1)C1(O)CCCCC1 (stereo not given)	-1.4%	8%	-1.1%	2	2.5	-0.7	1
